Source: PubChem
TRPV1 PAM = HTS Assay for Compounds that Act as Potentiators of the Vanilloid Receptor 1. potentiation, % at 8.33 µM. AID 540277, 2011. Transient receptor potential cation channel subfamily V member 1 (Homo sapiens), Q8NER1. actives 0.02% (n = 320,000). TRPV1-expressing cells, Fluo-8 calcium influx, capsaicin EC20 potentiation; host cell line not named in the record; control for the full effect not named in the record; active means potentiation above 80%; inconclusive means 30% to 80%; inactive means below 30%; further: 0% is about no effect
Target sequence (Q8NER1 whole entry, looked up): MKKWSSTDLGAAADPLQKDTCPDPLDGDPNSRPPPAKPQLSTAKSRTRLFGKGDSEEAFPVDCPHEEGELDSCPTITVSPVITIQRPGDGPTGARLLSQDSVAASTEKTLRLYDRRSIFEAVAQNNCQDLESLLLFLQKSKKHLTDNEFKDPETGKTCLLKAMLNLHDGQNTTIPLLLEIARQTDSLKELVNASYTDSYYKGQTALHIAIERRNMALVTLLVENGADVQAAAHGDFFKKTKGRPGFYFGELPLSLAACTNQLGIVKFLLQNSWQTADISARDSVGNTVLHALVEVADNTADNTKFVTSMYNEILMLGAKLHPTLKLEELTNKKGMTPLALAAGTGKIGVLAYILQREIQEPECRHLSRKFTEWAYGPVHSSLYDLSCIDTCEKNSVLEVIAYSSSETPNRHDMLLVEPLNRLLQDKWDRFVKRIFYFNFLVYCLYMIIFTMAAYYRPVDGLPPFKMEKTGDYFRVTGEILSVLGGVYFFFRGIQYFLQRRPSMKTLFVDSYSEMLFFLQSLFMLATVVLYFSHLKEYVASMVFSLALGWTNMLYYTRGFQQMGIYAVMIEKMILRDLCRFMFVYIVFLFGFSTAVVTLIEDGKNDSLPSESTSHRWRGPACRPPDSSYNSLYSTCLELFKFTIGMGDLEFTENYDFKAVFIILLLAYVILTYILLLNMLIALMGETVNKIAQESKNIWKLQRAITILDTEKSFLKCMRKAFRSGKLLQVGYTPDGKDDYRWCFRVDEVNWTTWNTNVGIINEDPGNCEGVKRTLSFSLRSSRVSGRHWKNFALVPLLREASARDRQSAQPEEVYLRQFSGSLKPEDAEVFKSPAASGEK
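Fluo-8 calcium influx in TRPV1-expressing cells, kinetic read (ex 480/em 520 nm). Compound added and read 3 min for agonist activity, followed by capsaicin at EC20 final and 2 min further read for enhancement.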
Sfp inh = qHTS Assay for Inhibitors of Bacillus subtilis Sfp phosphopantetheinyl transferase (PPTase) | AID 1490, 2009 | actives 3.5% (n = 310,000) | Potency, µM, inactives show max response, negative = inhibition, usual class: inhibitors | Biochemical Sfp PPTase activity, qHTS | 4'-phosphopantetheinyl transferase ffp (Bacillus subtilis), Q9F4F7; active means well fitted inhibition curve with a large enough effect; inconclusive means small, poorly fitted or top-dose-only effect, or another doubt; inactive means no such curve, though single readings can be large or run the other way;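 further: the enzyme is Sfp with the accession as filed and its product quenches rhodamine fluorescence; potency means the concentration at half of the fitted maximal effect; 0% = enzyme reaction without inhibitor and -100% = no enzyme wells; top concentration of the series not given in the record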
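With Hepes-Na pH 7.6 buffer containing 10 mM MgCl2, Sfp (15 nM) modified BHQ-2-YbbR (12.5 uM) using rhodamine-CoA (5 uM). Two reads 30 minutes apart at 525/598 nm yielded each well's rate.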
CtBP-E1A inh = qHTS Assay for Inhibitors of the CtBP/E1A Interaction; CtBP / adenovirus E1A interaction (AlphaScreen); AlphaScreen GST-E1A/His-CtBP binding, 1536-well; hits give low values; control for the full effect not named in the record; activity change, % (no concentration beside the values); actives 0.49% (n = 340,000); in the data active means activity change below about -65%; inconclusive means about -30% to -65%; inactive means above about -30%; further: on the % scale 0 is the no-effect control and ±100 the full control effect; compound concentration not given in the record
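In 5 uL wells, 23 nL compound meets equimolar GST-E1A and His-CtBP (5X stock 125 nM each) for 2 h, 37 °C. Beads (5X, 50 ug/mL) then 1 h, 37 °C, dark.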
gsp agonist = qHTS for Agonist of gsp, the Etiologic Mutation Responsible for Fibrous Dysplasia/McCune-Albright Syndrome: qHTS. gsp mutant cells, cAMP HTRF, 30 min; control for the full effect not named in the record. Potency, µM (top dose mostly 76.9 µM), without a hit: at the highest dose activation (cAMP increase), usual class: activators. actives 0.13% (n = 340,000); active = well fitted activation curve with a large enough effect; inconclusive = small, poorly fitted or top-dose-only effect, or another doubt; inactive = no such curve, though single readings can be large or run the other way; cell line not stated here;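 further: phosphodiesterase inhibitor Ro 20-1724 added with compounds to block cAMP breakdown; potency means the concentration at half of the fitted maximal effect; nearly all actives have a fitted effect of over 60% in size; about a fifth of the inactives were tested at one dose only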
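Cells stably selected in G418 were plated at 2000/well, grown 16-24 hr, then given compounds in DMSO with the PDE inhibitor […] (300 uM solution added) for 30 min at 37C; cAMP was read by HTRF.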
gsp antagonist = qHTS for Antagonists of gsp, the Etiologic Mutation Responsible for Fibrous Dysplasia/McCune-Albright Syndrome: qHTS; gsp-mutant cells, cAMP HTRF, 30 min; control for the full effect not named in the record; Potency, µM (highest dose often 76.9 µM), for inactives: at the top dose activity change, negative = inhibition, usual class: inhibitors; actives 0.4% (n = 340,000); AID 624288, 2012; active = falling curve of any shape with a large fitted effect; inconclusive = falling curve, mostly with a smaller effect; inactive = flat or rising curve; cell line not stated here;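 further: intracellular cAMP measured with PDE inhibitor Ro 20-1724 present during compound exposure; potency means the concentration at half of the fitted maximal effect; on the % scale 0 is the no-effect control and ±100 the full control effect; nearly all actives have a fitted effect of over 65% in size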
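Cells, 2000/well, grown 16–24 h in DMEM 10% FBS with 0.5 mg/ml G418, then compounds plus […] (300 uM addition stock), 30 min at 37C. cAMP read by HTRF (cAMP-d2 and anti-cAMP antibody-K in lysis buffer) after 30 min RT.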
ClpP mod = qHTS Assay for Activators of ClpP; ATP-dependent Clp protease proteolytic subunit (Bacillus subtilis (strain 168)), P80244; purified B. subtilis ClpP, FRET peptide cleavage, 20 min; Potency, µM (highest dose often 57.5 µM), for inactives: at the top dose activity change, negative = active; actives 1.9% (n = 340,000); active = well fitted falling curve with a large enough effect; inconclusive = small, poorly fitted or top-dose-only effect; inactive = no such curve, though single readings can be large or run the other way; further: potency means the concentration at half of the fitted maximal effect; the source files actives as falling curves though it sought activators and does not explain the sign; nearly all actives have a fitted effect of over 65% in size; many hits overshoot -100%
Target sequence (P80244 whole entry, looked up): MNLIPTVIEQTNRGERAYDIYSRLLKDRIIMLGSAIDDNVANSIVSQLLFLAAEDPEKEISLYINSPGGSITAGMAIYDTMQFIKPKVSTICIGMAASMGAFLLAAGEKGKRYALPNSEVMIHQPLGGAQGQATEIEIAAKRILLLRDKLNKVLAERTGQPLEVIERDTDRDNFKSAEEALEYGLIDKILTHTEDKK
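ClpP 10 microg/mL final, pH 8 Tris/KCl buffer with BSA, glycerol, Tween-20; compound pinned in; FRET-FV substrate; RT 20 min; Ex320/Em430; ΔFRET vs ADEP 5.8 microM, DMSO, no enzyme.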
Menin-MLL FL inh = qHTS Assay for Inhibitors Targeting the Menin-MLL Interaction in MLL Related Leukemias: Competition With Fluorescein Labeled MLL-derived Peptide | Fluorescence polarization, fluorescein-MLL peptide displacement from menin | 290,000 tested, under 10 active | AID 1766, 2009 | FP activity change, % at 61.4 µM; inconclusive = falling polarisation curve, or a change in total fluorescence; inactive = total fluorescence flat and polarisation flat or rising; no compound was filed as active; the % refers to the polarisation; negative = inhibition;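 further: % of control where 0% means no effect; inhibitors lower the polarisation; unlabelled MLL peptide was the positive control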
The depositor's hits bear a star; [ ] = dose if it differs, or a comment.

How did Cc1csc(NC(=S)Nc2cccc(Cl)c2)n1 do in these assays?
TRPV1 PAM: 4; Sfp inh: 7%; CtBP-E1A inh: 2; gsp agonist: 1%; gsp antagonist: -31%; ClpP mod: -1.3%; Menin-MLL FL inh: 9.5

What do the screens show for `Cc1sc2nc(C3CC3)nc(SCC(=O)N3CCCc4ccccc43)c2c1C`?
TRPV1 PAM: -4; Sfp inh: -9%; Menin-MLL FL inh: -3.9

Results for O=C(/C=C/c1cccs1)N1CCCC1 ?
TRPV1 PAM: 2; Sfp inh: 13%; CtBP-E1A inh: 7; gsp agonist: 4%; gsp antagonist: -2%; Menin-MLL FL inh: 3.6

How did O=C(N/C(=C/c1cccnc1)C(=O)N1CCOCC1)c1ccccc1 do in these assays?
TRPV1 PAM: -4; Sfp inh: 14%; CtBP-E1A inh: 4; gsp agonist: 1%[15.4 µM]; gsp antagonist: 19%; Menin-MLL FL inh: -0.2

What do the screens show for `CCN(CC)S(=O)(=O)c1ccc(/C=C/C(=O)OCC#N)cc1`?
TRPV1 PAM: -7; Sfp inh: 12%; CtBP-E1A inh: 3; gsp agonist: 11%; gsp antagonist: 5%; Menin-MLL FL inh: 0.5

How did CC1CCCC(C)N1C(=O)CCN1C(=O)C2C3C=CC(C3)C2C1=O (centres undefined) do in these assays?
TRPV1 PAM: -3; Sfp inh: 8%; CtBP-E1A inh: 3; gsp agonist: inconclusive; gsp antagonist: 11%; ClpP mod: 0.9%; Menin-MLL FL inh: 5.1

How did COc1ccc(C2NCCc3c2[nH]c2ccccc32)cc1COc1ccc(F)cc1 (centres undefined) do in these assays?
TRPV1 PAM: 5; Sfp inh: 45µM*; CtBP-E1A inh: inconclusive; gsp agonist: -33%[inhibitor]; gsp antagonist: 8%; ClpP mod: -2.3%; Menin-MLL FL inh: 12

Results for CCn1cc(CCC(=O)NCc2ccccc2OC)c2ccccc21 ?
TRPV1 PAM: -11; Sfp inh: 17%; CtBP-E1A inh: -29; gsp agonist: inconclusive; gsp antagonist: -6%; ClpP mod: inconclusive; Menin-MLL FL inh: 6.7

How did CCCCOc1ccc(Cl)cc1CSc1nnc(C)n1N do in these assays?
TRPV1 PAM: 1; Sfp inh: 16%; CtBP-E1A inh: 4; gsp agonist: 0%; gsp antagonist: 15%; ClpP mod: -0.6%; Menin-MLL FL inh: -4.9

Results for COc1ccc(N(CC(=O)NCCC2=CCCCC2)S(=O)(=O)c2c(C)[nH]c(=O)[nH]c2=O)cc1 ?
Sfp inh: 23%; CtBP-E1A inh: -8; gsp agonist: -2%; gsp antagonist: 0%; ClpP mod: -1.0%; Menin-MLL FL inh: 0.9

What do the screens show for `CSc1nc(C)cc(OCC(=O)n2nc(C)cc2C)n1`?
TRPV1 PAM: 1; Sfp inh: 7%; CtBP-E1A inh: 8; gsp agonist: -12%; gsp antagonist: 12%; ClpP mod: -2.0%; Menin-MLL FL inh: 1.2

What do the screens show for `CC1=CC(=O)C=C(C)C1=NOC(=O)/C=C\c1ccccc1`?
TRPV1 PAM: 0; Sfp inh: -9%; CtBP-E1A inh: -19; gsp agonist: -43%[inhibitor]; gsp antagonist: -6%; ClpP mod: -2.3%; Menin-MLL FL inh: -0.2

How did Cc1cc(OCc2nnc(SC(C)C(=O)O)n2-c2ccccc2)ccc1Cl (centres undefined) do in these assays?
TRPV1 PAM: -8; Sfp inh: 16%; CtBP-E1A inh: 0; gsp agonist: -17%; gsp antagonist: -10%; Menin-MLL FL inh: 1.2

How did CC(=O)Nc1ccc(S(=O)(=O)Nc2ccc(Cl)nn2)cc1 do in these assays?
TRPV1 PAM: 1; Sfp inh: 12%; CtBP-E1A inh: 4; gsp agonist: -5%; gsp antagonist: 12%; ClpP mod: -0.1%; Menin-MLL FL inh: -4.3

What do the screens show for `O=C(CSc1nc2ccccc2nc1N1CCCC1)Nc1ccc(Cl)cc1`?
TRPV1 PAM: 28; Sfp inh: 4%; CtBP-E1A inh: 14; gsp agonist: 12%; gsp antagonist: -1%; ClpP mod: -6.8%; Menin-MLL FL inh: 1.3

Results for COc1ccc(NC(=O)c2ocnc2C)cc1OC ?
TRPV1 PAM: 25; Sfp inh: 1%; CtBP-E1A inh: 6; gsp agonist: -5%; gsp antagonist: 9%; ClpP mod: -1.5%; Menin-MLL FL inh: -1.5

What do the screens show for `Cc1ccc(-n2nc3c(c2NC(=O)c2cccs2)CS(=O)(=O)C3)cc1`?
TRPV1 PAM: -14; Sfp inh: 13%; CtBP-E1A inh: -6; gsp agonist: inconclusive; gsp antagonist: 0%; ClpP mod: -2.6%; Menin-MLL FL inh: -3.0

How did CC(C)NC(=O)Nc1cccc(Cl)c1 do in these assays?
TRPV1 PAM: -30; Sfp inh: -12%; CtBP-E1A inh: -2; gsp agonist: 20%[15.4 µM]; gsp antagonist: 5%; Menin-MLL FL inh: 1.2

How did CN(Cc1ccccc1)C(=O)c1cnc2n(c1=O)CCS2 do in these assays?
TRPV1 PAM: 10; Sfp inh: 4%; CtBP-E1A inh: 8; gsp agonist: inconclusive; gsp antagonist: 11%; ClpP mod: 0.6%; Menin-MLL FL inh: 1.0

How did COc1ccc(CCN2C(=O)CCC2(C)C(=O)NC2CCCC2)cc1OC (centres undefined) do in these assays?
TRPV1 PAM: -1; Sfp inh: 25%; CtBP-E1A inh: 3; gsp agonist: -13%[15.4 µM]; gsp antagonist: 11%; Menin-MLL FL inh: -0.7

Results for CC(=O)OCC1OC(n2ccc(=O)[nH]c2=O)C(O)C1O (centres undefined) ?
TRPV1 PAM: -13; Sfp inh: 18%; CtBP-E1A inh: 9; gsp agonist: 10%; gsp antagonist: 14%; ClpP mod: -1.2%; Menin-MLL FL inh: -1.1

Results for Oc1c(Cl)cc(Cl)cc1C(C#Cc1ccccc1)N1CCOCC1 (centres undefined) ?
TRPV1 PAM: 11; Sfp inh: -6%; CtBP-E1A inh: -2; gsp agonist: 11%; gsp antagonist: -32%; ClpP mod: -0.5%; Menin-MLL FL inh: 6.1

What do the screens show for `COC(CNC(=O)C(C)n1nc(C)c2ccccc21)OC` (centres undefined)?
TRPV1 PAM: 14; Sfp inh: 3%; CtBP-E1A inh: 9; gsp agonist: -4%; gsp antagonist: 5%; ClpP mod: -1.4%; Menin-MLL FL inh: -1.9

What do the screens show for `O=C(CC1S/C(=N\S(=O)(=O)c2ccc(F)cc2)N(c2ccccc2)C1=O)Nc1ccccc1` (centres undefined)?
TRPV1 PAM: 3; Sfp inh: 5%; CtBP-E1A inh: -11; gsp agonist: 12%[15.4 µM]; gsp antagonist: -8%; ClpP mod: -2.5%; Menin-MLL FL inh: 5.1

Results for COc1ccc(Cc2nc(-c3cccs3)no2)cc1OC ?
Sfp inh: -1%; CtBP-E1A inh: 7; gsp agonist: -41%[inhibitor]; gsp antagonist: 11%; ClpP mod: -0.5%; Menin-MLL FL inh: 6.1

How did CC[N+](CC)(CC)C/C(N)=N/O do in these assays?
TRPV1 PAM: 0; Sfp inh: 12%; CtBP-E1A inh: 4; gsp agonist: 1%; gsp antagonist: 20%; ClpP mod: 2.2%; Menin-MLL FL inh: 1.6

Results for CCN1CCCC1CN(Cc1cc2ccc(C)cc2[nH]c1=O)C(=S)Nc1cccc(OC)c1 (centres undefined) ?
TRPV1 PAM: 5; Sfp inh: 12%; CtBP-E1A inh: -11; gsp agonist: 6%; gsp antagonist: 0%; ClpP mod: -12%; Menin-MLL FL inh: -0.1

Results for O=S(=O)(Nc1ccc(O)c(Sc2nc3ccccc3s2)c1)c1ccc(Cl)cc1 ?
TRPV1 PAM: -2; Sfp inh: 11%; CtBP-E1A inh: -3; gsp agonist: -22%; gsp antagonist: -20%; ClpP mod: -6.8%; Menin-MLL FL inh: -0.2

Results for Cc1ccc(N=Nc2c(C)[nH]n(C(N)=S)c2=O)cc1C ?
TRPV1 PAM: 1; Sfp inh: -20%; CtBP-E1A inh: 6; gsp agonist: inconclusive; gsp antagonist: 7%; ClpP mod: 0.8%; Menin-MLL FL inh: 7.7

How did O=C(Nc1cccc2c1CCCC2)c1ccccc1Cl do in these assays?
TRPV1 PAM: -19; Sfp inh: 15%; CtBP-E1A inh: -1; gsp agonist: 21%; gsp antagonist: -13%; Menin-MLL FL inh: 4.9

How did O=C(Nc1cccc2cccnc12)c1cccnc1 do in these assays?
TRPV1 PAM: 2; Sfp inh: 7%; CtBP-E1A inh: 2; gsp agonist: -31%; gsp antagonist: 8%; ClpP mod: 0.2%; Menin-MLL FL inh: -1.4

Results for Cc1ccc2nc(C)c3c(c2c1)N(c1ccccc1)CC3 ?
TRPV1 PAM: 4; Sfp inh: -4%; CtBP-E1A inh: 9; gsp agonist: inconclusive; gsp antagonist: 6%; Menin-MLL FL inh: -0.2

Results for O=c1c2cc(F)ccc2[nH]c(=S)n1Cc1ccc(F)cc1 ?
TRPV1 PAM: 3; Sfp inh: 11%; CtBP-E1A inh: 6; gsp agonist: 17%[15.4 µM]; gsp antagonist: -10%; Menin-MLL FL inh: -3.0

What do the screens show for `CCc1ccc(NC(=O)CSc2nc3ccsc3c(=O)n2CCC(=O)O)cc1`?
TRPV1 PAM: -7; Sfp inh: 6%; CtBP-E1A inh: -12; gsp agonist: inconclusive; gsp antagonist: -13%; ClpP mod: -1.0%

Results for O=C(O)c1csc(Cc2ccccc2)n1 ?
TRPV1 PAM: 4; Sfp inh: -28%; CtBP-E1A inh: 2; gsp agonist: 25%; gsp antagonist: 1%; Menin-MLL FL inh: -2.2

Results for CC(=O)Nc1ccc(CC#N)cc1 ?
TRPV1 PAM: 10; Sfp inh: 17%; CtBP-E1A inh: -6; gsp agonist: 26%; gsp antagonist: -4%; Menin-MLL FL inh: 4.4

How did COC(=O)c1sccc1NC(=O)CSc1nnnn1-c1ccccc1F do in these assays?
TRPV1 PAM: -1; Sfp inh: -8%; CtBP-E1A inh: -1; gsp agonist: 3%; gsp antagonist: -15%; ClpP mod: -1.4%; Menin-MLL FL inh: 8.0
